CSC inhib = cancer stem cell viability inhibitors, primary screen, luminescence | cancer stem cell-like cells viability | inhibition, % at 7.5 µM | 300,000 compounds, 1.1% hits;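 active = mean at 75% or more and at least half the replicates too; tested in HMLE shEcad cells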;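 also: 0% = median of negative and 100% = median of positive control wells; the first replicate is given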
Rce1 inhib = yeast Rce1p protease inhibitors, primary screen, biochemical, fluorescence, cell-free homogeneous; CAAX prenyl protease 2 (Saccharomyces cerevisiae (strain ATCC 204508 / S288c)), Q03530; calls only; 290,000 compounds, 0.27% hits; yeast membranes, quenched prenylated peptide cleavage fluorescence;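 active = fall in fluorescence gain of 50% or more versus controls, with final raw signal at or below 3038400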;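 also: plate controls were neutral control wells for no effect and wells lacking membranes for full effect; tested at 10 µM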
Target sequence (Q03530 whole entry, looked up): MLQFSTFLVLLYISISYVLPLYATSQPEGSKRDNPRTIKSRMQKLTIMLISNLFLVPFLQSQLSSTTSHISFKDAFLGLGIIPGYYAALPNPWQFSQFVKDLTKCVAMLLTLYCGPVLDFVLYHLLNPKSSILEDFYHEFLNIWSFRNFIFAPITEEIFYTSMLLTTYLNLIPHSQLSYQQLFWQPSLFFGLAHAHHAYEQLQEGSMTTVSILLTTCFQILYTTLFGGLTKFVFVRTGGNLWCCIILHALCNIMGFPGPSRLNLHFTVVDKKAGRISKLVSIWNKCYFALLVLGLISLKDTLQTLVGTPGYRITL
eIF4H inh = human eIF4H binding inhibitors, primary screen, translation initiation inhibitor project, biochemical, uHTS, fluorescence polarization | 290,000 compounds, 0.94% hits | Eukaryotic translation initiation factor 4H (Homo sapiens), Q15056 | inhibition, % at 35 µM | eIF4H fluorescence polarization binding assay;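 active = 50% or more with normal probe brightness, or confirmed in later tests; about a fifth of its hits are not listed in these tables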;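 also: calls also rest on retests at 20 µM and on dose response follow-up; 0% = protein and probe with vehicle and 100% = probe without protein; strong numbers were not always called active; many hits fall short of the cut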
MT1-MMP act inh = blockers of MT1-MMP proenzyme processing, primary screen, HT1080 RFP-PRO-GFP cells, GFP/RFP fluorescence. 360,000 compounds, 0.061% hits. GFP/RFP ratio fluorescence, overnight; percent of plate control window, DMSO zero. GFP/RFP ratio change, % at 20 µM. AID 651647, 2012;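 active = GFP/RFP ratio change of at least 30% with cell ATP level not reduced by more than half and red fluorescence within 50% of control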; also: strong numbers were not always called active
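Assay system: HT1080 RFP-PRO-GFP cells | Dosing: 20 µM single dose, 1% DMSO | Incubation: Cells overnight before dosing, compound overnight, 37 °C, 5% CO2 | Evaluation: GFP/RFP fluorescence ratio | Control set: DMSO-only wells and HT1080 RFP-L50D-GFP cell wells as references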
HIV Env fusion = inhibitors of HIV-1 Env-driven cell-cell fusion, primary screen, HeLa-JRFL effector, CEM21 target cells, luciferase | AID 651610, 2012 | inhibition, % at 12.3 µM | 360,000 compounds, 1.1% hits;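 active = mean replicate inhibition score of at least 50 and every replicate individually at or above 50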;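 also: 0% = plate neutral controls and 100% = maraviroc near 300 nM; one replicate is shown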
PABP FP inh = PABP poly(A) RNA binding inhibitors, primary screen, biochemical, fluorescence polarization, uHTS; Polyadenylate-binding protein 1 (Homo sapiens), P11940; inhibition, % at 35 µM; 290,000 compounds, 1% hits; AID 2014, 2009;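 active = 50% or more with normal probe brightness, or confirmed in later tests; about a fifth of its hits are not listed in these tables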;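 also: calls also rest on retests at 20 µM and on dose response follow-up; controls were probe without protein and protein plus probe with vehicle; some compounds called inactive have numbers as strong as hits; many hits fall short of the cut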
Yeast UUG start = modulators of yeast start codon fidelity, primary screen, whole organism, S. cerevisiae, single point, plate reader; S. cerevisiae UUG-firefly luciferase reporter, luminescence/redox ratio; activity score, % at 18.7 µM; 350,000 compounds, 0.13% hits; AID 602363, 2012;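 active = replicate mean at a twofold rise or more, about +100% in these data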;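 also: firefly luciferase made from a UUG start codon reports start codon fidelity; reporter light over untreated wells divided by growth signal over untreated wells; some hits fall short of that in this replicate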
eIF4H inh retest = also measured in eIF4H inh; calls as there; inhibition, %; compound at 20 µM; confirmation average;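 mean of two retest wells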
PABP FP inh retest = second read-out of PABP FP inh, no call of its own (marks repeat the call); inhibition, %; compound at 20 µM; confirmation repeats;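 mean of two retest wells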
MT1-MMP act inh RFP = second read-out of MT1-MMP act inh, no call of its own (marks repeat the call); RFP signal change, %; measured here: RFP expression control read;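 0 = vehicle wells; hits needed this value within 50% of zero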
The depositor's hits bear a star; i = inactive; · = not tested or not shown.

SMILES	CSC inhib	Rce1 inhib	eIF4H inh	MT1-MMP act inh	MT1-MMP act inh RFP	HIV Env fusion	PABP FP inh	Yeast UUG start	others
COc1cc([N+](=O)[O-])ccc1NC(=O)NNC(=O)C(C)Oc1ccc(F)cc1F (centres undefined)	-1.3	i	-6.3	-2.5	-3.7	-7.4	-1.7	-0.9
CCOc1cc(C)c(Cl)cc1S(=O)(=O)n1ccnc1	1.5	i	2.3	3.4	1.3	13.2	-5.9	-12.7
c1ccc(-c2nnc(CSc3ccc4c(c3)OCCO4)o2)cc1	0.0	i	-7.2	1.2	1.6	-15.9	-2.3	-16.0
Cc1cc(C)n2c(SCC(=O)Nc3ccccc3C#N)nnc2n1	·	·	·	-3.8	6.3	-0.3	·	-20.4
Cc1c(/C=N/Nc2ccc([N+](=O)[O-])cn2)c2ccccc2n1Cc1ccccc1	3.8	i	-7.9	7.5	4.4	12.4	8.1	-8.8
COc1ccc(NC(=O)c2c(SC)nsc2SC)cc1	-9.7	i	-10.8	0.5	-0.7	·	0.7	-19.0
Nc1nc2c(c(=O)[nH]1)CN(Cc1ccccc1)CC2	-10.9	i	·	0.1	3.8	10.6	·	-14.9
CCOc1ccc(Oc2ccc(S(=O)(=O)N3CCOCC3)cc2NC(=O)CCNC(C)=O)cc1	-1.1	i	·	1.0	2.9	-1.5	·	·
COc1ccc(C(=O)OC(C)CN2CCN(C)CC2)cc1OC (centres undefined)	11.8	i	5.2	-1.5	-1.0	·	4.3	-10.9
Cc1sc2nc(SCC(=O)NCc3ccco3)n(C)c(=O)c2c1C	6.1	i	2.2	1.5	-3.8	·	1.5	·
O=C(Nc1ccccc1C(F)(F)F)N1CCN(C(c2ccccc2)c2ccccc2)CC1	8.0	i	14.5	-26.5	-7.7	3.6	1.2	-21.2
O=C(CCCC(=O)NCc1ccccc1)NCc1ccccc1	-0.4	i	0.3	6.5	8.3	14.3	8.8	-4.8

Among those listed so far, these contain a nitro group on carbon:
SMILES	CSC inhib	Rce1 inhib	eIF4H inh	MT1-MMP act inh	MT1-MMP act inh RFP	HIV Env fusion	PABP FP inh	Yeast UUG start	others
COc1cc([N+](=O)[O-])ccc1NC(=O)NNC(=O)C(C)Oc1ccc(F)cc1F (centres undefined)	-1.3	i	-6.3	-2.5	-3.7	-7.4	-1.7	-0.9
Cc1c(/C=N/Nc2ccc([N+](=O)[O-])cn2)c2ccccc2n1Cc1ccccc1	3.8	i	-7.9	7.5	4.4	12.4	8.1	-8.8

Following part
SMILES	CSC inhib	Rce1 inhib	eIF4H inh	MT1-MMP act inh	MT1-MMP act inh RFP	HIV Env fusion	PABP FP inh	Yeast UUG start	others
O=C(CSc1nnc(-c2ccc(O)cc2)n1Cc1ccco1)c1ccccc1	5.2	i	6.7	-5.0	-1.4	·	-0.4	3.0
CC(=O)Nc1ccc(Sc2ccccc2C(=O)O)c(C(=O)O)c1	-11.9	i	-0.7	2.0	2.6	0.8	7.2	·
Cc1cc(C(=O)NCC(=O)OCC(=O)N2CCCCCC2)ccc1[N+](=O)[O-]	-11.2	i	-9.6	1.0	4.0	2.1	15.2	4.4
CC(Oc1ccccc1)C(=O)OCC(=O)Nc1ccc2c(c1)OCO2 (centres undefined)	-14.1	·	·	-1.5	-2.4	-20.0	·	·
CN(C)S(=O)(=O)c1cc(NC(=O)CN2CCN(c3ccccc3O)CC2)ccc1Cl	2.3	i	-3.8	4.1	-7.2	24.9	0.6	·
CSc1ncccc1C(=O)N1CCC1(C)C(=O)NC(C)C (centres undefined)	·	·	·	-2.3	3.8	-0.4	·	-3.5
CCN(CC)CCCNC(=S)N(Cc1ccco1)Cc1cc2cc3c(cc2[nH]c1=O)OCCO3	24.4	i	11.8	·	·	-29.3	0.2	·
CN(Cc1ccc(C(F)(F)F)cc1)C(=O)c1ccc2ccccc2n1	-0.8	·	0.9	4.6	4.4	6.3	-2.4	8.0
C=C(C)C(=O)OCCCCCCOc1ccc(C(=O)O)cc1	-9.7	i	-5.9	16.6	8.3	-37.7	-0.9	-11.3
O=C(CCS(=O)(=O)c1ccc(Br)cc1)N1CCN(c2ccccc2Cl)CC1	-18.9	i	-0.5	3.1	-3.3	17.6	-9.3	13.1
COC(=O)C1=C(C(=O)OC)[C@]2([C@@H]3CC=CCN[C@@H](Cc4ccccc4)C(=O)N3Cc3ccccc3)C=C[C@H]1O2	·	·	·	-28.1	-26.7	73.3*	·	-11.3
Cc1nn2c(nc(N3CCCCC3)c3ccccc32)c1C=O	6.1	i	12.1	-10.2	-3.0	-4.9	-5.0	-8.3
CCC1CCCCN1c1cc(C)nc2cc(-c3cccc(C)c3)nn12 (centres undefined)	·	i	-7.1	-6.6	-7.2	·	-7.6	-7.7
OC[C@@H]1[C@@H](c2ccc(Cl)cc2)C(c2ccccc2)=NN1c1ccccc1	·	·	·	-0.6	-4.2	-10.2	·	-6.5
CCOc1c2ccc(C(=O)NCc3ccc(OC)cc3)cc2nn1CCOC	-2.8	i	-3.5	4.8	-0.2	6.7	-12.9	-9.6
CCOC(=O)c1c(C)[nH]c(C)c1C(=O)COC(=O)c1ccc(Cl)nc1	-11.9	·	·	0.3	-0.7	-7.4	·	4.5
CC(Sc1nccn1C)C(=O)Nc1ccccc1 (centres undefined)	-20.8	i	3.4	-0.9	-0.4	-14.9	-6.0	-17.4
CCOC(=O)CN1C(=O)S/C(=C/c2ccc3c(c2)n(C)c(=O)n3C)C1=O	10.0	i	4.7	6.5	8.0	-40.0	-9.9	·
COc1ccc2cc(C(=O)C3CCCN(C(=O)c4snnc4C)C3)ccc2c1 (centres undefined)	-0.9	i	67.4	1.0	-4.8	4.2	-0.6	-6.0	eIF4H inh retest=2.1;PABP FP inh retest=9.7
COCCCn1c(C)nnc1SCc1ccc(C(C)(C)C)cc1	-16.6	i	7.9	0.2	0.6	0.8	-6.8	·
CCCCc1ccc(NC(=O)NCc2cccnc2)cc1	6.5	i	-1.5	-1.1	-2.6	29.8	-1.3	-17.1
Cc1ccc(S(=O)(=O)Nc2ccccc2C(O)c2ccccc2)cc1 (centres undefined)	-6.9	i	-2.7	3.7	-0.9	22.5	16.1	2.5
CNc1oc(/C=C/c2ccccc2)nc1C#N	15.5	i	4.7	7.1	1.0	-212.2	1.9	·
O=C(NCC1CCCO1)c1cccc(Oc2ccc([N+](=O)[O-])cc2)c1 (centres undefined)	-12.7	i	8.7	0.1	-13.5	25.7	16.7	3.7
CCOC(=O)c1c(N/N=C/c2cccnc2)n[nH]c1C	28.4	i	-9.8	2.6	-3.3	-73.9	14.8	-11.6
COc1ccc(NC(=O)NC23CC4CC(CC(C4)C2)C3)cc1OC	-15.5	i	6.1	3.3	-2.7	·	-17.1	-6.8
NC(=O)c1ccc(F)cc1	-20.2	i	·	2.4	-0.1	·	·	-10.8
O=S(=O)(/N=C(\[O-])C[n+]1ccccc1)c1ccc(Cl)cc1	0.3	i	-1.7	3.9	4.8	2.7	8.6	·
CC(C)[C@H](NC(=O)Nc1ccc2c(c1)OCCO2)C(=O)O	-8.9	i	3.4	4.3	2.6	-87.4	9.4	-1.0
CN(C[C@H](Cc1ccccc1)N(C[C@@H](Cc1cccc2ccccc12)N(CCc1ccccc1)N=O)N=O)N=O	12.8	i	-8.4	5.3	-0.3	37.7	-13.5	-20.1
COc1ccc(-c2cnn3c4c(c(C)nc23)CCN4C2CCCC2)cc1OC	-15.3	i	-3.1	3.5	-0.1	-32.2	1.1	-5.7
CCN(C(=O)CCS(=O)(=O)c1cc2c(cc1Cl)NC(=O)CO2)c1ccccc1	-3.8	i	-1.1	1.1	4.2	71.9*	2.0	-3.8
c1ccc(C2=NCCCN2)cc1	2.0	i	-0.7	2.3	6.0	·	8.5	-7.5
O=C(NCc1ccco1)c1ccc(S(=O)(=O)c2cccc(S(=O)(=O)N3CCOCC3)c2)cc1	5.1	·	-6.7	-4.7	-2.8	-35.2	-1.5	1.7
Cc1ccccc1CNC(=O)c1ccc2sc([C@H]3C[C@H](O)[C@@H](CO)O3)nc2c1	·	·	·	2.0	-2.4	4.3	·	-29.3
O=C(CCN1C(=O)c2ccncc2C1=O)Nc1ccc2c(c1)OCCO2	-5.6	i	0.0	4.4	4.0	·	5.5	0.3
C#CCOCCOCCOCCNc1nc(N2CCN(C(=O)[C@H](Cc3cc4ccccc4[nH]3)n3cc([C@@H](N)CC(C)C)nn3)CC2)nc(N2CCN(C(=O)[C@H](Cc3cc4ccccc4[nH]3)n3cc([C@@H](N)CC(C)C)nn3)CC2)n1	10.8	i	-2.8	-3.1	0.5	·	13.7	8.3
CCCn1c(=O)c(-c2nc3ccccc3[nH]2)c(O)c2ccccc21	·	i	-0.8	-1.7	-1.6	7.6	2.8	·
Cn1nc(C(C)(C)C)cc1C(=O)NCc1ccc2c(c1)OCO2	-10.1	i	-9.7	6.0	-30.5	23.5	-4.9	-32.8
Cc1ccnc2nc(C(=O)OCCOc3ccc(F)cc3)nn12	-0.6	i	-5.3	2.2	1.9	11.5	12.3	-14.1
Cc1cccc(NC(=O)c2cc(N3C(=O)CCC3=O)ccc2Cl)n1	-10.7	i	7.1	0.0	0.1	-60.3	-5.9	·
Cc1c(NC(=O)c2nn(C)c(=O)c3ccccc23)c(=O)n(-c2ccccc2)n1C	0.7	i	·	-0.4	5.0	-118.1	·	-4.4

A portion from the list above, as a working copy:
SMILES	CSC inhib	Rce1 inhib	eIF4H inh	MT1-MMP act inh	MT1-MMP act inh RFP	HIV Env fusion	PABP FP inh	Yeast UUG start	others
COc1ccc(-c2cnn3c4c(c(C)nc23)CCN4C2CCCC2)cc1OC	-15.3	i	-3.1	3.5	-0.1	-32.2	1.1	-5.7
CCN(C(=O)CCS(=O)(=O)c1cc2c(cc1Cl)NC(=O)CO2)c1ccccc1	-3.8	i	-1.1	1.1	4.2	71.9*	2.0	-3.8
c1ccc(C2=NCCCN2)cc1	2.0	i	-0.7	2.3	6.0	·	8.5	-7.5
O=C(NCc1ccco1)c1ccc(S(=O)(=O)c2cccc(S(=O)(=O)N3CCOCC3)c2)cc1	5.1	·	-6.7	-4.7	-2.8	-35.2	-1.5	1.7
Cc1ccccc1CNC(=O)c1ccc2sc([C@H]3C[C@H](O)[C@@H](CO)O3)nc2c1	·	·	·	2.0	-2.4	4.3	·	-29.3
O=C(CCN1C(=O)c2ccncc2C1=O)Nc1ccc2c(c1)OCCO2	-5.6	i	0.0	4.4	4.0	·	5.5	0.3
C#CCOCCOCCOCCNc1nc(N2CCN(C(=O)[C@H](Cc3cc4ccccc4[nH]3)n3cc([C@@H](N)CC(C)C)nn3)CC2)nc(N2CCN(C(=O)[C@H](Cc3cc4ccccc4[nH]3)n3cc([C@@H](N)CC(C)C)nn3)CC2)n1	10.8	i	-2.8	-3.1	0.5	·	13.7	8.3
CCCn1c(=O)c(-c2nc3ccccc3[nH]2)c(O)c2ccccc21	·	i	-0.8	-1.7	-1.6	7.6	2.8	·
Cn1nc(C(C)(C)C)cc1C(=O)NCc1ccc2c(c1)OCO2	-10.1	i	-9.7	6.0	-30.5	23.5	-4.9	-32.8
Cc1ccnc2nc(C(=O)OCCOc3ccc(F)cc3)nn12	-0.6	i	-5.3	2.2	1.9	11.5	12.3	-14.1
Cc1cccc(NC(=O)c2cc(N3C(=O)CCC3=O)ccc2Cl)n1	-10.7	i	7.1	0.0	0.1	-60.3	-5.9	·
Cc1c(NC(=O)c2nn(C)c(=O)c3ccccc23)c(=O)n(-c2ccccc2)n1C	0.7	i	·	-0.4	5.0	-118.1	·	-4.4
